# OX1R FRET antag = antagonists of human orexin 1 receptor (OX1R); AID 485270, 2010; OX1R-expressing cells, FRET antagonist read-out; 1.8% of 330,000 active; inhibition, % at 6.6 µM; Orexin/Hypocretin receptor type 1 (Homo sapiens), O43613; in the data active means inhibition mostly above about 38%, no sharp cut-off; inactive means mostly below about 40%;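 further: 0% = agonist challenge alone and 100% = reference antagonist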
# Target sequence (O43613 whole entry, looked up): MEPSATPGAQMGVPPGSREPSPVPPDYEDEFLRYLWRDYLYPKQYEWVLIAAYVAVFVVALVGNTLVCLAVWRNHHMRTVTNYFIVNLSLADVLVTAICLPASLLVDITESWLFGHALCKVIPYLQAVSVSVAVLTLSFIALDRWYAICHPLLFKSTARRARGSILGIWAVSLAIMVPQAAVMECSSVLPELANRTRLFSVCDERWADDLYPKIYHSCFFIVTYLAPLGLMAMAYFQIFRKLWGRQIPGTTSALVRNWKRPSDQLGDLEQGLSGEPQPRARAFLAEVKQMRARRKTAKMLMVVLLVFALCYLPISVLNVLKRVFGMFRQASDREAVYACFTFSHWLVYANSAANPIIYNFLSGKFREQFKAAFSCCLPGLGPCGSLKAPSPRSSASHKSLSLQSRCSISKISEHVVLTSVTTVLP
# Numbers without * were called inactive.
smiles	OX1R FRET antag
COc1cc(OC)cc(C(=O)NCC(=O)NCC(c2ccco2)N2CCCCC2)c1 (stereo not drawn)	1.3
COc1ccc(N(CC(=O)Nc2c(C)n(C)n(-c3ccccc3)c2=O)S(=O)(=O)c2ccc(C)cc2)cc1OC	15.4
CSc1ccccc1-c1nnc(-c2ccccc2)o1	57.2
Nc1nonc1-n1nnc(C(=O)N/N=C/c2ccc(OCc3ccccc3F)cc2)c1CN1CCCCC1	4.5
O=C(C1=C[C@@H](C2CCCCC2)C[C@@H](OCCCCO)O1)N1CCOCC1	35.2
CCN1CCN(CCCN(Cc2ccco2)C(=S)Nc2ccc(Cl)cc2)CC1	18.6
O=C(COC(=O)c1ccc([N+](=O)[O-])o1)NC1CCS(=O)(=O)C1 (stereo not drawn)	43.0
CCOC(=O)c1c(S(=O)(=O)NCCCc2ccco2)c(C)n(C)c1C	14.3
O=C(NCc1ccncc1)c1nc(-c2cccs2)no1	16.4
C=CCNc1nc2c(c(=O)n(C)c(=O)n2C)n1CCCCCC	21.1
CCOC(=O)c1cccc(NS(=O)(=O)c2cnc[nH]2)c1	16.4
O=C(Cn1ccc([N+](=O)[O-])n1)N1CCCc2ccccc21	10.6
Cc1cc(/C=C(\C#N)C(=O)OCC#N)c(C)n1CC(C)C	23.6
O=C(NCCN1CCN(c2ccccc2F)CC1)C1CCCN(S(=O)(=O)c2cnc[nH]2)C1 (stereo not drawn)	-0.3
COc1ccc(/C=C(/NC(=O)c2ccccc2OC)C(=O)Nc2ccc(C(=O)O)cc2)cc1	8.7
COc1cc(OC)cc(C2=NCCN2)c1	12.7
O=C1CCN(CCc2ccccc2)CCN1CCSc1ccccc1	17.2
CCOC(=O)N1CCN(C(=S)Nc2cccc(C)c2C)CC1	14.2
COc1ccc(/C=C/C(=O)O)cc1S(=O)(=O)NCc1ccccc1	30.0
O=C(Nc1cc(S(=O)(=O)N2CCOCC2)ccc1Cl)C(=O)c1c(-c2ccccc2)cc2ccccn12	20.5
Cc1ccc2[nH]cc(CCNC(=O)Nc3ccccc3)c2c1	10.3
CCN1CCN(Cc2ccc(NC(=O)Nc3ccccc3OC)cc2)CC1	10.9
COc1ccc(C2NC3=C(CCC3)C3(C#N)C(OC)(OC)N=C(N)C23C#N)cc1 (stereo not drawn)	13.8
Cc1ccc(OCC(=O)Nc2ccc3c(c2)nc(CCN2CCN(C)CC2)n3C)cc1	8.0
Cc1cnc(NC(=O)Cc2ccc(S(=O)(=O)N3CCOCC3)s2)s1	3.4
CO/N=C1\CCCc2c(C(=O)NN)sc(SC)c21	1.7
COc1ccc(Cc2n[nH]c(=S)n2NC(=O)Nc2ccc(C)cc2)cc1	13.8
CCOC(=O)c1ccccc1NC(=O)CSc1nc2ccccc2c(=O)[nH]1	38.8
O=C(c1cccc(Cl)c1)N1CCC(=O)N(C(CO)Cc2ccccc2)CC1 (stereo not drawn)	30.8
Cc1cc(C)n(CCc2nc(-c3ccc(-c4ccccc4)cc3)cs2)n1	12.9
CC(C)OCCCNC(=O)c1cccc2c1C(=O)c1ccc(Cl)cc1S2(=O)=O	34.7
O=C(COc1ccccc1CNCc1ccccc1)Nc1ccccc1	13.5
Nc1nc(SCc2ccc(Cl)cc2Cl)ns1	9.5
CC(=O)c1c(CC(=O)O)[nH]n(-c2nc3ccccc3s2)c1=O	7.5
CN(CC(=O)NCCc1ccc(S(N)(=O)=O)cc1)c1ccccc1	4.0
O=C(Cn1cncn1)N/N=C/c1cccc2ccccc12	8.6
Cc1ccc(F)cc1NC(=O)C1CCCN(c2ncccn2)C1 (stereo not drawn)	1.1
Nc1nc(NCc2ccco2)nc(N2CCCCC2)c1[N+](=O)[O-]	13.0
O=C1NC(=O)C(CC(=O)N(Cc2ccco2)C2(C(=O)NC3CCCCC3)CCCCC2)N1 (stereo not drawn)	10.4
O=C(N/N=C/c1cc([N+](=O)[O-])ccc1Cl)c1cc(-c2ccccc2)nc2ccccc12	0.5
Cc1[nH]c2ccccc2c1C(=O)COC(=O)C1CCC(=O)N1 (stereo not drawn)	8.2
O=C(Oc1cccc2cccnc12)c1cccc(-n2cnnn2)c1	1.7
CC(C)NC(=O)C(=O)NCCC1CCCCN1S(=O)(=O)c1cccs1 (stereo not drawn)	17.5
O=C(O)c1ccc(S(=O)(=O)N2CCSCC2)cc1	13.3
CCOc1ccccc1C1NC(=O)c2ccccc2O1 (stereo not drawn)	8.5
O=C(Cc1ccc(F)cc1)Nc1cccc(-c2cn3c(n2)SCC3)c1	34.4
COc1ccc2oc(C(=O)N(Cc3ccco3)Cc3cccs3)c(C)c2c1	24.8
COC(=O)CN(c1ccc(OCc2ccccc2)cc1)S(C)(=O)=O	6.7
COc1cc2c(C#N)c(N3CCN(c4ccccc4OC)CC3)nc(N)c2c(N)n1	35.5
O=C(O)CCC(=O)Nc1ccc(-c2nnc(-c3ccco3)o2)cc1	0.7

# Next results follow.
smiles	OX1R FRET antag
CN(C)CCCNCCCNC(=O)c1ccco1	3.5
CC1CC(C)(C)NC(=S)N1CCC(=O)N1CCc2ccccc2C1 (stereo not drawn)	16.7
Cc1ccc(C2SCC(C(=O)O)N2C(=O)c2ccc(F)cc2)cc1 (stereo not drawn)	-5.0
O=C(COC(=O)c1cc(=O)[nH]c2ccccc12)NCc1cccc(Cl)c1	11.5
Cc1nc(SCC(=O)NC(C)c2ccccc2)c2oc3ccccc3c2n1 (stereo not drawn)	11.5
CCOc1cc(C2C(C(=O)OC(C)C)=C(C)N=C3SCCC(=O)N32)ccc1OC(C)=O (stereo not drawn)	14.7
Cc1c(C(=O)NCCCn2ccnc2)oc2ccccc12	25.0
CC(=O)c1cnc2nc(C)nn2c1C	8.1
Cc1ccc2[nH]c3c(=O)n(Cc4ccco4)cnc3c2c1	18.5
O=C(CN(C1CCCCC1)S(=O)(=O)c1ccccc1)NCc1ccco1	4.1
COc1ccccc1C(=O)NC(=O)COC(=O)c1ccc(NC(=O)CC#N)cc1	11.4
O=C(CSc1nnc(CNC(=O)c2c(F)cccc2Cl)o1)Nc1ccc2c(c1)OCCO2	19.8
COCCNC(=S)N(CCc1c(C)[nH]c2ccc(OC)cc12)Cc1ccco1	6.3
O=C(Nc1cccc(C(=O)O)c1)/C(=C\c1ccc2c(c1)OCO2)NC(=O)c1ccco1	11.1
Cc1ccc(OCC(=O)N2CCOCC2)c([N+](=O)[O-])n1	13.9
CCN(CC)CCNC(=O)Cn1cnc2sc(C)c(S(=O)(=O)N3CCC(C)CC3)c2c1=O	12.4
CC1=C(C(=O)NC(C)c2ccccc2)C2(CCC(C)CC2)OC1=O (stereo not drawn)	9.2
COc1ccc(C(CC(=O)O)NS(=O)(=O)c2ccc3c(c2)N(C(C)=O)CC(C)O3)cc1 (stereo not drawn)	2.7
CCCOc1cccc(C2C(C(=O)c3ccco3)=C(O)C(=O)N2CCCn2ccnc2)c1 (stereo not drawn)	23.1
O=C(Nc1ccc(Oc2c(F)c(F)c(F)c(F)c2F)cc1)OC1CCN2Cc3ccccc3N=C12 (stereo not drawn)	13.6

# (listing goes on)
SMILES | OX1R FRET antag
O=C(c1ccco1)N1CCN(C(=O)c2cnn3c(C(F)(F)F)cc(-c4cccs4)nc23)CC1 | 13.9
CCOC(=O)Cc1cc(C)[nH]c1C(=O)OCC | 2.3
CCOC(=O)C1=C(C)NC(C)=C(C(=O)OCC)C1C(=O)OCC(=O)NCCc1ccc(S(N)(=O)=O)cc1 | 8.0
COc1ccc(C(=O)C(C)OC(=O)CNC(=O)C2CCCCC2)cc1 (stereo not drawn) | 2.8
Cc1cc(=O)c2n(Cc3ccc(Cl)cc3)nc[n+]2[nH]1 | 3.7
Cc1ccc2nc(Cl)c3cc(C(=O)NCCCN4CCCC4)sc3c2c1 | 13.3
COC(=O)c1ccc(C(=O)OC)c(-n2c(=O)c3ccccc3c3ccccc3c2=O)c1 | -3.7
O=C(c1cc(-c2ccncc2)nc2c(Cl)cccc12)N1CCN(c2ccccc2F)CC1 | 15.1
Cc1ccc2cc3cc(C(=O)NC4CC4)oc3nc2c1 | 29.5
COc1cc2ccccc2cc1C(=O)NC(=S)Nc1ccc(C(=O)O)cc1 | 13.4
O=C(/C=C/c1cccnc1)c1cc(F)ccc1O | 16.2
CN(C)C(CNc1ncnc2sc3c(c12)CCCC3)c1ccco1 (stereo not drawn) | 21.3
Cc1cc(NC(=O)CSc2nc3cc(C(=O)NCCCOC(C)C)ccc3c(=O)n2Cc2ccco2)no1 | 25.9
CC(=O)Nc1ccc(NC(=O)C2C3C=CC(C3)C2C(=O)O)cc1 (stereo not drawn) | 11.7
COC(=O)C1=C(C)N(Cc2ccc(OC)c(OC)c2)C(=O)C1 | 37.3
O=C(COc1ccc2c(-c3ccccc3)cc(=O)oc2c1)NC(Cc1c[nH]c2ccccc12)C(=O)O (stereo not drawn) | 22.3
Cc1ccc(-c2onc(C)c2C)cc1S(=O)(=O)N1CCOc2ccccc21 | 20.9
CN1CCC(=C(c2ccc(Cl)cc2)c2ccccn2)CC1 | 7.3
COc1ccc(C(=O)N(Cc2nc(-c3ccc(C)cc3)no2)C2CCCCC2)cc1OC | 11.9
CC(=O)Nc1nnc(S(N)(=O)=O)s1 | 20.9

# Given field by field: entries from further up
O=C(COc1ccc2c(-c3ccccc3)cc(=O)oc2c1)NC(Cc1c[nH]c2ccccc12)C(=O)O (stereo not drawn)
  OX1R FRET antag: 22.3
Cc1ccc(-c2onc(C)c2C)cc1S(=O)(=O)N1CCOc2ccccc21
  OX1R FRET antag: 20.9
CN1CCC(=C(c2ccc(Cl)cc2)c2ccccn2)CC1
  OX1R FRET antag: 7.3
COc1ccc(C(=O)N(Cc2nc(-c3ccc(C)cc3)no2)C2CCCCC2)cc1OC
  OX1R FRET antag: 11.9

# Additional results:
SMILES | OX1R FRET antag
COc1ccc(-c2cc(C(F)(F)F)n3nc(C(=O)NCc4ccco4)cc3n2)cc1 | 16.6
O=C(COC(=O)c1ccc2c(c1)OCCO2)NCCc1ccccc1 | 3.3
COC(=O)CC1C(=O)NCCN1C(=O)CSc1nnnn1-c1ccc(OC)cc1 (stereo not drawn) | 7.1
COc1ccc(N2CCN(C(=O)CNC(=O)c3cn(-c4ccccc4OC)c(=O)c4ccccc34)CC2)cc1 | 13.8
N#Cc1nc(NCC(F)F)nc(Nc2cc(F)cc(F)c2)n1 | 3.0
CCN(CC)S(=O)(=O)c1cc(C(=O)OCC(=O)Nc2cccc(S(=O)(=O)N(C)C)c2)ccc1F | 10.7
CCN(c1ccccc1)c1ncnc2c1cnn2-c1ccccc1 | 15.0
COC(=O)C(Cc1ccc(O)cc1)NC(=O)C(CC(=O)OC(C)(C)C)NC(=O)OC(C)(C)C (stereo not drawn) | 11.1
COc1ccc(C)cc1NC(=O)Cc1c(C(=O)O)n(C)c2ccccc12 | 6.1
COc1ccccc1C(=O)Nc1ccccc1N1CCN(S(C)(=O)=O)CC1 | 14.6
CCOc1ccccc1/C=N/NC(=O)CSc1n[nH]c(=O)[nH]c1=O | 5.6
CCn1cc(C(=O)Nc2sc(C)c(C)c2C(=O)OC)cn1 | 11.9
Cc1c(NC(=O)/C=C/c2cccs2)c(=O)n(-c2ccccc2)n1C | 21.7
Cc1ccc(CCNc2ccccc2C)cn1 | 12.6
CCOC(=O)N1CCN(C(c2ccc(C(C)C)cc2)c2sc3nc(C)nn3c2O)CC1 (stereo not drawn) | -7.7
CCCOc1ccc(C(=O)O)cc1 | 9.2
O=C(NCc1ccc2c(c1)OCO2)c1ccncc1 | 18.9
O=C(COc1ccc(Cl)cc1Cl)NCCCNC(=O)c1cnccn1 | 17.1
COc1ccc(NS(=O)(=O)c2ccc(C)c(NC(=O)NC3CCCCC3)c2)cc1 | 18.6
O=C(COc1ccc(Br)cc1)Nc1ccc([N+](=O)[O-])cn1 | 16.1
COc1ccc2c(c1)CC/C(=C/c1ccncc1)C2=O | 24.2
COc1ccc(CNC(=O)CCS(=O)(=O)Cc2cccc(Cl)c2)c(OC)c1 | 19.0
Cc1cc(N2CCN(C)CC2)nc2ccc(NC(=S)N3CCCCCC3)cc12 | 17.6
COc1ccc(C(=O)CSc2nnc(-c3ccccc3)o2)cc1 | 19.5
Cc1ccc(OCc2nnc(SCC(=O)N3CCOCC3)n2C)cc1 | 18.5
C/C(=C\c1cccc(Br)c1)C(=O)c1c(C)cc(C)[nH]c1=O | -4.0
CCN(CC)C(=O)c1ccc2c(c1[N+](=O)[O-])C(=O)c1ccccc1C2=O | 12.8
COc1cnc(-c2ccccc2)nc1Oc1ccc(C(C)(C)C)cc1 | 7.7
NC(=O)c1c(N)sc2c1CCCCC2 | 26.0
CCC(C)(C)C1CCc2[nH]nc(C(=O)NCc3ccc(Cl)cc3)c2C1 (stereo not drawn) | 27.1
Cc1ccc(CNC(=O)CCS(=O)(=O)c2ccc3c(c2)NC(=O)C(C)S3)cc1 (stereo not drawn) | -4.7
CC(/C=N/NC(=O)c1cc(C2CC2)[nH]n1)=C\c1ccccc1 | 14.6
O=C(Oc1oc(-c2ccco2)nc1C=Nc1ccccc1)c1ccco1 | 14.9
COc1ccc(CCNC(=O)Cn2c(=O)c3cccn3c3cccnc32)c(OC)c1OC | -2.7
CCc1ccc(NC(=O)c2onc(C)c2Cl)cc1 | 12.4
CC(C)Oc1cc(C(=O)NC2CCCCC2)c2ccccc2n1 | 9.5
O=C(CN1CCOc2ccccc21)NCc1ccccc1 | 11.8
CCC(C)NC(=O)c1cn(CCOC)c(=O)c2c1c1ccccc1n2C (stereo not drawn) | -7.0
Cc1ccc(N2CC(c3nc4ccccc4[nH]3)CC2=O)c(C)c1 (stereo not drawn) | -2.7
COC(=O)c1cc(C#N)c(N2CC(C)OC(C)C2)nc1C (stereo not drawn) | 13.4
COc1ccc(CC(=O)n2nc(-c3ccc(Cl)cc3)nc2NCc2ccco2)cc1 | 8.8
CCN1CCN(c2nc(N(C)c3ccccc3)nc(N)c2[N+](=O)[O-])CC1 | 9.2
CCOC(=O)Cc1csc(NC(=S)NC(=O)CC(C)C)n1 | 52.0
COc1ccc(/C=N/N2CCN(c3ccccc3OC)CC2)cc1OC | 9.6
CCOC(=O)c1cccc(NS(=O)(=O)Cc2ccccc2)c1 | 33.5

# Bioassay records (PubChem BioAssay)

# Not all compounds are listed, and most or all hits are left out here.
